Sa RN4220 lethal – S. aureus RN4220 growth inhibition | OD600, 16 h | inhibition, % (test concentration not listed) | actives 0.33% (n = 330,000);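 active = z-score of -3 or lower and OD600 up to 0.18 on both plates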;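 note: plate controls were untreated cells for no effect and reference antibiotic for full effect; stock transfer was 100 nL into about 80 µL; one replicate is shown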
ugtP null kill – growth inhibition of S. aureus ugtP deletion strain. S. aureus RN4220 ugtP deletion, OD600 growth, 16 h; some inactives read as strong as hits. growth inhibition, % (concentration not given with the values). actives 0.54% (n = 330,000). AID 1259309;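 active = z-score under -3 and OD600 up to 0.15 on both plates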;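 note: plate controls were untreated wells for no effect and antibiotic for full effect; wells of about 80 µL received 100 nL stock; the first replicate is given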
Mtb hypoxia inh – Mtb hypoxia fluorescent reporter inhibition. M. tuberculosis hypoxia-regulated fluorescent reporter, fluorescence. fluorescence inhibition, % (concentration not given with the values). AID 1159583. actives 0.1% (n = 300,000);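 active = 35 to 45% if threefold the growth effect, above 45% if 1.5-fold the growth effect; inactive = the rest, general growth blockers included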;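 note: wells of about 50 µL received 100 nL stock; 0% = vehicle wells and 100% = reference inhibitor wells; whole bacteria with a GFP reporter of the hypoxia response; strong numbers were not always called active; many hits fall short of the cut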
BJeLR viability – kills HRASV12-expressing BJeLR cells | BJeLR (HRASV12) viability, CellTiter-Glo ATP luminescence, 48 h; reference of the scale not given here | actives 0.17% (n = 300,000) | inhibition, % (no concentration beside the values) | AID 1554;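 active = replicate mean above 50%; inconclusive = above 50% but judged a plate artefact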;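 note: 50 nL library stock added to about 25 µL; numbers are from one replicate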
Autofluor counter – counter-screen for toxin protease inhibitors: compound fluorescence. compound autofluorescence counterscreen, microsphere flow cytometry; active compounds read high. actives 3.1% (n = 360,000). AID 624483. fluorescence intensity (concentration not given with the values);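 active = at least 3 SD above the mean of all compounds, about 16000 in these data; inconclusive = too few beads counted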;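 note: 100 nL of 1 mM stock went into each well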
PrP 5UTR inh – suppresses PrP 5' UTR mRNA reporter expression; cell-based PrP 5' UTR mRNA reporter, plate reader; inhibition, % (concentration not given with the values); actives 0.35% (n = 340,000);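 active = every replicate at 50% or more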;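 note: 0 = median of the neutral control wells; tested in H4 reporter cells; numbers are from one replicate; inactives centre near -14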
Mtb hypoxia inh growth – second read-out of Mtb hypoxia inh, no call of its own (marks repeat the call); growth inhibition, %; measured here: M. tuberculosis growth (absorbance);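 0% = vehicle and 100% = reference antibiotic; read after six days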
The depositor's hits bear a star; ? = inconclusive; . = no result given.

nr	smiles	BJeLR viability	Mtb hypoxia inh	Mtb hypoxia inh growth	Autofluor counter	Sa RN4220 lethal	ugtP null kill	PrP 5UTR inh
1	O=C1Nc2ccc(Br)cc2/C1=C/C(=O)c1ccc2c(c1)OCO2	22.9	9.7	4.5	5256	41.0	29.6	-16.8
2	Cc1cccc(NC(=O)c2ccc3c(=O)n4c(nc3c2)CCCCC4)n1	-8.5	5.5	5.4	?	3.1	4.1	-74.0
3	COC(=O)c1sc2cnccc2c1N	-8.6	13.7	0.8	7930	2.9	5.0	-17.1
4	COc1ccc(CCC(=O)Nc2cccc(S(=O)(=O)N3CCOCC3)c2)cc1OC	.	1.5	-2.5	5631	2.0	4.9	-6.8
5	O=c1cc(C(F)(F)F)oc2c1ccc1ccccc12	-2.1	7.6	3.9	4556	6.2	-2.5	-14.4
6	O=C(CCCn1c(=O)[nH]c2ccc(Br)cc2c1=O)NCc1ccc(Cl)cc1	2.4	2.8	-2.2	4375	1.1	7.9	-20.8
7	Cn1c(-c2ccccc2)c(C(=O)CCl)c2ccccc21	18.1	14.7	16.8	3444	27.3	8.9	-2.1
8	CCc1c(C)nc2ncnn2c1Nc1ccc(C#N)c(Cl)c1	-13.4	-0.2	5.0	10412	5.0	0.9	2.5
9	COc1ccc2[nH]c3nc(SCC(=O)Nc4ccc5c(c4)OCO5)nnc3c2c1	5.5	.	.	4567	-4.3	3.7	-7.6
10	CCNS(=O)(=O)c1ccc(CCC(=O)NCc2cccnc2)cc1	17.9	7.9	5.0	3633	1.1	1.1	-5.9
11	CCOC(=O)C1=C(C)N=C2SC(CC)C(=O)N2C1c1cccc(F)c1 (stereo not drawn)	2.1	13.1	3.8	2887	-15.4	-3.4	-10.7
12	O=C(OCc1ccccc1)C1CCCN1C(=O)c1ccccc1[N+](=O)[O-] (stereo not drawn)	1.1	2.9	3.7	20292*	3.9	3.9	-18.1
13	Cc1cc(C)nc(N=C(N)Nc2ccccc2-c2ccccc2)n1	.	.	.	.	5.8	-8.2	.
14	O=C(/C=C/c1ccccc1)N1c2ccccc2Sc2ccc(C(F)(F)F)cc21	-3.0	2.9	3.0	1998	-0.3	0.7	-7.8
15	COC(=O)c1ccccc1NC(=O)C/C(C)=N/NC(=O)CC#N	-2.0	.	.	3344	.	.	-9.6
16	Cc1cc(C)cc(OCC(=O)Nc2ccc3c(c2)OCCO3)c1	-0.3	-2.6	6.3	3342	-1.7	0.7	-22.3
17	CC(=O)Nc1cccc(OCCCNC(=O)c2ccc(F)cc2)c1	-5.8	8.4	7.8	3624	3.8	0.8	-120.5
18	Cc1ccc(-c2nnc(COc3cccc(-n4cnnn4)c3)o2)cc1	7.8	14.7	5.6	9561	2.6	2.3	-14.0
19	COc1cc(C(O)P(=O)(OCC(C)C)OCC(C)C)cc(OC)c1OC (stereo not drawn)	-1.7	.	.	2098	-4.1	2.3	-1.0
20	O=C(O)c1ccc(Nc2nc3ccccc3nc2NS(=O)(=O)c2cccs2)cc1	-3.8	-5.5	-11.1	4056	5.8	10.0	-12.9
21	COc1cc(C2=NOC(C(=O)Nc3cccnc3)C2)cc(OC)c1OC (stereo not drawn)	-3.7	3.0	10.1	2602	5.4	-0.1	-17.4
22	CC(=O)c1c(C)[nH]c(C(=O)Nc2cccc(S(=O)(=O)N3CCCCC3)c2)c1C	.	1.5	0.6	8642	2.0	-2.2	-12.8
23	O=C(Nc1ccc(Cl)cc1C(=O)N1CCOCC1)c1cccc([N+](=O)[O-])c1	8.2	8.5	-4.2	.	0.8	5.8	.
24	O=C(Cn1ccc(=O)[nH]c1=O)NCCO	-21.8	4.2	7.6	4053	6.9	0.6	-17.3
25	CCc1ccc(NC(=O)CNC(=O)c2cn(-c3ccccc3OC)c(=O)c3ccccc23)cc1	1.8	-0.7	-1.2	4637	2.7	6.0	-16.0

Other structures:
nr	smiles	BJeLR viability	Mtb hypoxia inh	Mtb hypoxia inh growth	Autofluor counter	Sa RN4220 lethal	ugtP null kill	PrP 5UTR inh
26	CCOc1ccc(/C=N/n2c(C3CCCCC3)n[nH]c2=S)cc1	2.7	.	.	3646	.	.	-11.3
27	O=C(C1CC1)N1CCN(c2ccc(F)cc2)CC1	2.1	8.2	7.5	3672	1.1	9.3	-24.1
28	Cc1nn(C)c2ncc(C(N)=O)c(Oc3ccc(Cl)cc3)c12	-4.0	-1.5	-5.5	3506	0.3	12.3	.
29	Cc1ccnc(SCC(=O)N2CCN(c3ccccc3)CC2)n1	-7.6	9.7	15.1	21477*	7.3	5.2	-13.9
30	CC[C@H](C)[C@H](NC(N)=O)C(=O)Nc1ccc(C)cc1	0.3	10.4	8.4	2019	2.4	4.0	-13.6
31	CCOC(=O)C1=C(O)C(=Cc2ccc(CNC(=O)C(=O)Nc3ccccc3)o2)N=C1C	.	2.8	2.5	.	4.2	-11.8	.
32	CCOC(=O)C1(CCCc2ccccc2)CCN(C(=O)c2cnc(C)cn2)CC1	-3.2	7.0	5.9	1945	4.5	-3.3	-20.0
33	CC(C)Oc1ccc(C(=O)Nc2ccc([N+](=O)[O-])cc2)cc1	17.7	-3.2	5.0	4174	3.7	-2.2	-74.3
34	CC(=O)Nc1ccccc1OCC(=O)NCCC1=CCCCC1	4.2	16.5	7.2	4010	4.9	4.9	-4.5
35	O=C(N/N=C1\CCCc2ccccc21)c1cccc([N+](=O)[O-])c1	-1.2	.	.	5291	.	.	-28.6
36	O=C(NCc1cccnc1)C1CCCN(S(=O)(=O)c2cccc3nsnc23)C1 (stereo not drawn)	3.1	-1.4	-2.6	8425	6.1	6.4	-23.7
37	O=C(COC(=O)C1CCN(S(=O)(=O)c2cccs2)CC1)Nc1ccc(F)cc1F	-10.9	-7.2	12.6	4212	2.2	-2.4	-23.4
38	COCCCNC(=S)N1CCC(C(=O)c2ccc3c(c2)OCCO3)CC1	-3.8	-5.5	8.9	3351	1.4	0.9	-14.2
39	CN1CCCN(S(=O)(=O)c2cccc(C(F)(F)F)c2)c2nc3ccccc3nc21	.	2.6	-1.7	?	-2.6	-25.7	-18.7
40	CN(CC(=O)Nc1ccc(N2CCOCC2)cc1)C(=O)CCNC(=O)c1ccc(Br)cc1	2.5	6.4	1.5	?	4.4	6.3	-10.5
41	NC(=O)c1nn(-c2ccc(Cl)cc2Cl)c(=O)cc1O	14.5	13.3	16.4	4838	1.4	4.9	-11.3
42	CC(=O)c1ccc(Nc2c3c(nc4ccccc24)CCCC3)cc1	1.6	7.0	11.1	5113	-3.2	16.0	-23.6
43	COC(=O)C1=C(c2ccccc2)CC2CCC1N2C (stereo not drawn)	.	9.4	0.9	.	0.4	3.5	.
44	COc1ccccc1-n1c(-c2cn(C)nc2C)n[nH]c1=S	10.0	9.1	5.2	2157	3.8	8.2	-14.4
45	S=C(Nc1ccccn1)Nc1ccccc1Cl	0.0	21.4	24.3	5504	-0.1	16.6	-51.1
46	Cc1cc(/C=C(\C#N)C(=O)Nc2ccccc2F)c(C)[nH]1	0.5	-8.0	1.5	4703	5.5	7.4	-86.2
47	COCCSc1nnc(NC(=O)C2CC(=O)N(c3ccc(OC)cc3)C2)s1 (stereo not drawn)	-13.0	6.5	5.9	3973	1.4	1.2	-32.1
48	CC1CCc2c(sc3ncnc(NS(=O)(=O)c4cccs4)c23)C1 (stereo not drawn)	4.2	12.8	7.7	2603	54.1	31.9	-7.4
49	CCCc1nc(SCC(=O)N2CCOCC2)c2c(C)c(C)sc2n1	-13.5	1.7	-1.8	3453	4.7	8.6	0.7
50	Cc1ccc(-c2nn[nH]n2)cc1Cl	6.9	-8.2	3.5	4099	6.5	-3.2	-5.7

(next part)
nr	smiles	BJeLR viability	Mtb hypoxia inh	Mtb hypoxia inh growth	Autofluor counter	Sa RN4220 lethal	ugtP null kill	PrP 5UTR inh
51	O=C(NC(=O)c1ccc(Cl)c(Cl)c1)OC1CCS(=O)(=O)C1 (stereo not drawn)	2.2	-6.9	0.3	5702	3.6	-2.4	-28.2
52	O=C(NNc1c(Cl)cccc1Cl)c1sccc1Cl	2.5	6.2	7.0	5889	5.6	-3.9	-21.4
53	COC(=O)/C(C#N)=C1/C=Cc2ccccc2N1	3.6	-4.6	-6.0	2453	4.0	8.6	-44.6
54	Cc1ccc(SC(=NS(=O)(=O)c2ccc(Cl)cc2)c2ccccc2)cc1	.	-6.7	10.6	.	7.0	60.7	.
55	COc1ccccc1C1CC(c2ccc(C)cc2)Nc2ncnn21 (stereo not drawn)	0.0	-3.4	6.2	5204	7.7	-15.6	-19.9
56	O=C(/C=C/c1ccc(O)c(O)c1)c1ccc(S(=O)(=O)N2CCCCCC2)cc1	13.9	12.8	1.0	9785	9.4	8.5	-12.9
57	Cc1ccc(S(=O)(=O)N(CC(=O)NCc2ccccc2Cl)C(=O)N2CCN(C)CC2)cc1	9.4	-1.8	-3.9	5754	2.1	9.0	-17.6
58	Cn1c(/C(C#N)=C(\O)c2ccc(Br)s2)nc2ccccc21	-9.7	1.2	-4.6	5363	2.9	3.2	-45.5
59	Cc1ccc(S(=O)(=O)NCc2nnc(SCC(=O)Nc3cccc(C)c3C)n2C)cc1	-13.0	2.2	0.8	21005*	-0.4	0.5	-9.7
60	Cc1ccc(NC(=O)C2CCCN(S(=O)(=O)c3c(C)noc3/C=C/N(C)C)C2)cc1F (stereo not drawn)	.	8.7	3.7	15852	3.7	1.2	-1.4
61	CN(Cc1ccccc1)S(=O)(=O)CCNC(=O)c1ccc2c(c1)OCO2	2.0	-0.4	11.3	5510	0.8	3.0	-22.5
62	COc1ccc(C=Nn2cnn(Cc3ccccc3Cl)c2=S)cc1OC	.	1.2	-7.0	.	-2.7	15.0	.
63	Cc1ccc(C=NN2CCN(c3ccccc3)CC2)cc1	.	12.1	3.3	.	5.1	-1.4	.
64	COC(=O)c1cccc(NC(=O)CN2CCOCC2)c1	2.9	5.8	11.5	10298	2.7	3.6	-17.7
65	CCOc1ccc(-c2nnc(NC(=O)C3CCCC3)o2)cc1	-8.4	7.2	8.6	3849	-1.7	20.3	-27.2
66	CN1CCN(c2nc(-c3ccccc3)cc(C(F)(F)F)n2)CC1	-4.8	12.5	3.6	2972	4.5	28.0	-5.9
67	CCOC(=O)Nc1ccc2c(c1)ncn2C1CCCCC1	-7.2	6.1	12.9	9921	2.5	-9.3	-49.5
68	COc1cc(CO)ccc1Oc1nc2ccccc2n2cnnc12	7.1	1.6	-1.7	3701	2.3	4.2	-22.5
69	NS(=O)(=O)c1ccc(CCNS(=O)(=O)c2ccc(Cl)nc2)cc1	5.8	10.7	3.4	5471	1.8	-0.4	-4.5

Seven entries drawn at random from the list so far, as already listed:
nr	smiles	BJeLR viability	Mtb hypoxia inh	Mtb hypoxia inh growth	Autofluor counter	Sa RN4220 lethal	ugtP null kill	PrP 5UTR inh
64	COC(=O)c1cccc(NC(=O)CN2CCOCC2)c1	2.9	5.8	11.5	10298	2.7	3.6	-17.7
69	NS(=O)(=O)c1ccc(CCNS(=O)(=O)c2ccc(Cl)nc2)cc1	5.8	10.7	3.4	5471	1.8	-0.4	-4.5
55	COc1ccccc1C1CC(c2ccc(C)cc2)Nc2ncnn21 (stereo not drawn)	0.0	-3.4	6.2	5204	7.7	-15.6	-19.9
62	COc1ccc(C=Nn2cnn(Cc3ccccc3Cl)c2=S)cc1OC	.	1.2	-7.0	.	-2.7	15.0	.
63	Cc1ccc(C=NN2CCN(c3ccccc3)CC2)cc1	.	12.1	3.3	.	5.1	-1.4	.
66	CN1CCN(c2nc(-c3ccccc3)cc(C(F)(F)F)n2)CC1	-4.8	12.5	3.6	2972	4.5	28.0	-5.9
52	O=C(NNc1c(Cl)cccc1Cl)c1sccc1Cl	2.5	6.2	7.0	5889	5.6	-3.9	-21.4

Just Mtb hypoxia inh, Mtb hypoxia inh growth and PrP 5UTR inh (two entries from above):
item | structure | Mtb hypoxia inh | Mtb hypoxia inh growth | PrP 5UTR inh
61 | CN(Cc1ccccc1)S(=O)(=O)CCNC(=O)c1ccc2c(c1)OCO2 | -0.4 | 11.3 | -22.5
66 | CN1CCN(c2nc(-c3ccccc3)cc(C(F)(F)F)n2)CC1 | 12.5 | 3.6 | -5.9
